UUG fidelity = alters start codon recognition fidelity in yeast | S. cerevisiae UUG-firefly luciferase reporter, luminescence/redox ratio | activity score, % at 18.7 µM | actives 0.13% (n = 350,000);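 active means replicate mean at a twofold rise or more, about +100% in these data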;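 further: firefly luciferase made from a UUG start codon reports start codon fidelity; reporter light over untreated wells divided by growth signal over untreated wells; some hits fall short of that in this replicate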
Rce1 inh = inhibitors of yeast Ras-converting enzyme; yeast membranes, quenched prenylated peptide cleavage fluorescence; calls only; actives 0.27% (n = 290,000); AID 2563;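 active means fall in fluorescence gain of 50% or more versus controls, with final raw signal at or below 3038400; inconclusive means same 50% fall but final raw signal above 3038400; inactive means fall in fluorescence gain under 50%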;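 further: plate controls were neutral control wells for no effect and wells lacking membranes for full effect; tested at 10 µM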
PABP polyA inh = PABP-poly(A) binding inhibition; P11940; PABP-poly(A) RNA binding, fluorescence polarization; inhibition, % at 35 µM; actives 1% (n = 290,000);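 active means 50% or more with normal probe brightness, or confirmed in later tests; inconclusive means above 50% with abnormal brightness, or retests that disagree; inactive means below 50% or failed in later tests; about a fifth of its hits are not listed in these tables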;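 further: calls also rest on retests at 20 µM and on dose response follow-up; controls were probe without protein and protein plus probe with vehicle; some compounds called inactive have numbers as strong as hits; many hits fall short of the cut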
Target sequence (P11940 whole entry, looked up): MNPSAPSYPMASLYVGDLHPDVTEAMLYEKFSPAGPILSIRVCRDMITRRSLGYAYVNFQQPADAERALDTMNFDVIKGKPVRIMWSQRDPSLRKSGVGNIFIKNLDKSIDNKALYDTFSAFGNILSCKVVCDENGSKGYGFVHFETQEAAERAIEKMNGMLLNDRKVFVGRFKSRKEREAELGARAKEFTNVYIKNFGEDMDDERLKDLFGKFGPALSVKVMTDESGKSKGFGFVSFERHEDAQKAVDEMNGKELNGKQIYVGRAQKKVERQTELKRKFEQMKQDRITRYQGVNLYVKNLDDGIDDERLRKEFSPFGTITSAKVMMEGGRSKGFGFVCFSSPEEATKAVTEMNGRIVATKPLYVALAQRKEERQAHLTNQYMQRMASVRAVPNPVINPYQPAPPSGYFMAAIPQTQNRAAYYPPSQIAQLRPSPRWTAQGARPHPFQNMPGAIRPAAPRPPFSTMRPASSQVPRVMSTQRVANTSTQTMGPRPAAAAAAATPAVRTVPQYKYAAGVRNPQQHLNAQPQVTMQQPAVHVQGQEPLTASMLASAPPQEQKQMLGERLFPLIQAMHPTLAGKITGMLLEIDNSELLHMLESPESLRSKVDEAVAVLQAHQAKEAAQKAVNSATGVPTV
CSC inhib = blocks cancer stem cells. cancer stem cell-like cells viability, luminescence. inhibition, % at 7.5 µM. actives 1.1% (n = 300,000). AID 2717;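 active means mean at 75% or more and at least half the replicates too; inconclusive means mean and replicates disagree; tested in HMLE shEcad cells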;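 further: 0% = median of negative and 100% = median of positive control wells; the first replicate is given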
Env fusion inh = inhibitors of HIV Env-mediated cell fusion. HeLa-JRFL Env/CEM21 cell fusion, luciferase. inhibition, % at 12.3 µM. actives 1.1% (n = 360,000);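 active means mean replicate inhibition score of at least 50 and every replicate individually at or above 50; inconclusive means only one of the two criteria met; inactive means mean below 50 and not all replicates reaching 50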;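 further: 0% = plate neutral controls and 100% = maraviroc near 300 nM; one replicate is shown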
MT1-MMP act inh = MT1-MMP (human) activation inhibition. P50281. HT1080 RFP-PRO-GFP cells, GFP/RFP ratio fluorescence, overnight; percent of plate control window, DMSO zero. GFP/RFP ratio change, % at 20 µM. actives 0.061% (n = 360,000);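 active means GFP/RFP ratio change of at least 30% with cell ATP level not reduced by more than half and red fluorescence within 50% of control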; further: strong numbers were not always called active
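Assay system – RFP-PRO-GFP reporter HT1080 cells · Compound dosing – single dose of 20 µM compound, 1% DMSO final · Incubation – overnight compound exposure at 37 °C · Measure – GFP/RFP fluorescence ratio · Benchmarks – DMSO wells and RFP-L50D-GFP cells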
eIF4H FP inh = inhibitors of RNA binding by human eIF4H | Q15056 | eIF4H fluorescence polarization binding assay | inhibition, % at 35 µM | actives 0.94% (n = 290,000);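 active means 50% or more with normal probe brightness, or confirmed in later tests; inconclusive means above 50% with abnormal brightness, or retests that disagree; inactive means below 50% or failed in later tests; about a fifth of its hits are not listed in these tables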;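 further: calls also rest on retests at 20 µM and on dose response follow-up; 0% = protein and probe with vehicle and 100% = probe without protein; strong numbers were not always called active; many hits fall short of the cut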
MT1-MMP act inh RFP = also measured in MT1-MMP act inh; calls as there; RFP signal change, %; measured here: RFP expression control read;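 0 = vehicle wells; hits needed this value within 50% of zero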
* marks the source's active call; other numbers are inactive results; i = inactive; ? = inconclusive; / = no result given; & = joins results of further samples.

| compound | UUG fidelity | Rce1 inh | PABP polyA inh | CSC inhib | Env fusion inh | MT1-MMP act inh | MT1-MMP act inh RFP | eIF4H FP inh |
| --- | --- | --- | --- | --- | --- | --- | --- | --- |
| O=C(NCc1nnc(SCC(=O)N2CCCCC2)o1)c1c(F)cccc1F | 3 | i | -12 | 1 | 10 | 2 | -1 | -9 |
| C=C(C)Cn1c(Sc2nnc(C)s2)nc2c1c(=O)[nH]c(=O)n2C | -10 | i | 2 | / | -14 | 7 | -5 | 0 |
| COc1cc(C(=O)OCC(=O)c2cc(C)n(CC3CCCO3)c2C)cc(OC)c1C (stereo unspecified) | 107* | / | / | -12 | 3 | -2 | -5 | / |
| CCNC(=S)N1CCc2ccccc2C1 | / | / | -8 | -9 | 1 | 4 | 7 | -5 |
| COC(=O)c1cnc(Nc2nc(C(N)Cc3ccc(Cl)cc3)cs2)nc1C(F)(F)F (stereo unspecified) | -11 | / | / | / | -9 | -1 | 0 | / |
| CC(NC(=O)c1ccccc1F)c1nnc(SCC(=O)Nc2nccs2)n1C (stereo unspecified) | 7 | i | 1 | / | 2 | -4 | 2 | 3 |
| Nc1ncnc2c1ncn2[C@@H]1O[C@H](CNS(=O)(=O)c2cc3ccccc3s2)[C@@H](O)[C@H]1O | -7 | / | / | / | 13 | 2 | 2 | / |
| CS(=O)(=O)N(CC(=O)N1CCCC1)c1ccc(Cl)c(Cl)c1 | 22 | i | -4 | 8 | / | / | / | -1 |
| CCCCCCCC(=O)NNC(=O)CCC(=O)O | -8 | i | -2 | 6 | / | 5 | 5 | -16 |
| COc1cccc(/C=N/NC(=O)CCNc2n[nH]c(=O)[nH]c2=O)c1OC | / | i | -4 | 2 | 6 | 1 | 4 | -1 |
| O=C(Nc1ccc(N2CCOCC2)c(Cl)c1)c1ccc(S(=O)(=O)N2CCOCC2)cc1 | 9 | i | 9 | -2 | 19 | 4 | -6 | -5 |
| CC(C)CCNc1nc(N2CCCC2)c2c(c1C#N)CCN(C)C2 | -22 | i | 16 | -1 | 8 | -11 | 3 | 36 |
| COc1ccc(NC(=O)CCC(=O)N2CCN(S(=O)(=O)c3ccc(C)cc3)CC2)c(OC)c1 | -10 | i | / | -13 | -6 | 2 | 4 | / |
| C[C@H](CO)N1C[C@H](C)[C@@H](CN(C)C(=O)Nc2ccccc2)Oc2ccc(NC(=O)C3CCCCC3)cc2C1=O | 7&11 | / | / | -22 | 2 | 0 | 3 | / |
| COc1ccc(S(=O)(=O)N2CCNCC2)cc1OC | / | i | 6 | 22 | -1 | 4 | 3 | -5 |
| CC(C)OCC1CO1 (stereo unspecified) | 0 | / | / | -11 | / | -1 | 6 | / |
| CC(C)Cc1nnc(NC(=O)c2ccc([N+](=O)[O-])cc2)s1 | -3 | i | -3 | 3 | / | -1 | -3 | -15 |
| O=C(c1cc2ccccc2oc1=O)N(Cc1ccco1)Cc1cccs1 | -11 | i | 6 | / | 24 | -5 | -2 | 3 |
| COc1ccc(S(=O)(=O)Nc2noc3ccccc23)cc1 | 2 | i | -7 | -2 | 4 | -1 | 8 | -4 |
| O=C(NCc1ccccn1)C(=O)Nc1nc(C23CC4CC(CC(C4)C2)C3)cs1 | -15 | i | -4 | 25 | 11 | 8 | -15 | 2 |
| Cc1cccc(OC(C)C(=O)NCc2ccc(S(N)(=O)=O)cc2)c1 (stereo unspecified) | / | i | 26 | 1 | 15 | -1 | 2 | -15 |
| CC1(C)O[C@@H]2[C@H](O1)[C@@H](CO)O[C@H]2n1cc(Br)c(=O)[nH]c1=O | -4 | / | / | / | -9 | 1 | 5 | / |
| O=S(=O)(c1ccc(NC(=S)NCCC(c2ccccc2)c2ccccc2)cc1)N1CCOCC1 | / | i | 2 | 35 | / | 2 | -5 | 1 |
| CCOC(=O)Nc1ccc2c(c1)nc1n2CCN(CCOC)C1 | -16 | i | -8 | -10 | 18 | -1 | -2 | 1 |

Some entries already given, limited to Rce1 inh, UUG fidelity and PABP polyA inh.
| structure | Rce1 inh | UUG fidelity | PABP polyA inh |
| --- | --- | --- | --- |
| CS(=O)(=O)N(CC(=O)N1CCCC1)c1ccc(Cl)c(Cl)c1 | i | 22 | -4 |
| CCCCCCCC(=O)NNC(=O)CCC(=O)O | i | -8 | -2 |
| COc1cccc(/C=N/NC(=O)CCNc2n[nH]c(=O)[nH]c2=O)c1OC | i | / | -4 |
| O=C(Nc1ccc(N2CCOCC2)c(Cl)c1)c1ccc(S(=O)(=O)N2CCOCC2)cc1 | i | 9 | 9 |
| CC(C)CCNc1nc(N2CCCC2)c2c(c1C#N)CCN(C)C2 | i | -22 | 16 |
| COc1ccc(NC(=O)CCC(=O)N2CCN(S(=O)(=O)c3ccc(C)cc3)CC2)c(OC)c1 | i | -10 | / |
| C[C@H](CO)N1C[C@H](C)[C@@H](CN(C)C(=O)Nc2ccccc2)Oc2ccc(NC(=O)C3CCCCC3)cc2C1=O | / | 7&11 | / |

(cont.)
| compound | UUG fidelity | Rce1 inh | PABP polyA inh | CSC inhib | Env fusion inh | MT1-MMP act inh | MT1-MMP act inh RFP | eIF4H FP inh |
| --- | --- | --- | --- | --- | --- | --- | --- | --- |
| Cc1cc(C)c2c(=O)n(CC(=O)Nc3cccc(F)c3)sc2n1 | / | i | -4 | ? | 5 | -3 | 2 | -10 |
| COc1ccccc1C1SCCN1C(=O)c1ccc([N+](=O)[O-])cc1 (stereo unspecified) | / | i | 6 | -4 | 3 | -1 | 8 | 3 |
| Nc1cc(=O)[nH]c(SCC(=O)Nc2ncc(C(F)(F)F)cc2Cl)n1 | / | i | 4 | -1 | -6 | 2 | 8 | 3 |
| COc1ccccc1NC(=O)N1CCCC1C(=O)Nc1ccc2c(c1)OCO2 (stereo unspecified) | -20 | i | 6 | 2 | -24 | -1 | 2 | 0 |
| CCCCC(=O)N1CCN(c2nc3ccc(F)cc3s2)CC1 | -26 | i | 2 | 9 | -21 | -7 | -14 | 5 |
| COc1ccc2nc(-c3ccccc3)cc(C(=O)OCC(=O)N3CCCCC3)c2c1 | -7 | / | / | / | 10 | -2 | -9 | / |
| CCOC(=O)c1sc(=S)n(C)c1NC(=O)c1ccccc1 | -9 | i | 10 | / | 9 | 3 | 5 | -10 |
| COc1cc(OC)cc(C(=O)OC/C(O)=C(\C#N)c2nc3ccccc3[nH]2)c1 | -16 | i | -6 | 37 | 19 | -6 | -3 | 17 |
| C[C@H](CO)N1C[C@H](C)[C@@H](CN(C)Cc2ccc(Oc3ccccc3)cc2)OCc2cnnn2CCCC1=O | -7 | / | / | / | -1 | 1 | 5 | / |
| CC12CC3CC(C)(C1)CC(C(=O)NCc1cccnc1)(C3)C2 | -6 | i | 0 | -12 | -9 | 4 | -4 | -4 |
| CC1(C)CC(=O)C2=C(C1)OC(N)=C(C#N)C2c1ccsc1 (stereo unspecified) | -7 | i | 15 | -4 | / | -4 | 0 | 6 |
| NS(=O)(=O)c1ccc(NC(=O)COC(=O)c2cc3ccccc3oc2=O)cc1 | -12 | i | -3 | -2 | 6 | 1 | -2 | -1 |

Other results follow.
| compound | UUG fidelity | Rce1 inh | PABP polyA inh | CSC inhib | Env fusion inh | MT1-MMP act inh | MT1-MMP act inh RFP | eIF4H FP inh |
| --- | --- | --- | --- | --- | --- | --- | --- | --- |
| O=C(NC1CCCCCC1)C1CCN(S(=O)(=O)N2CCC3(CC2)OCCO3)CC1 | -27 | i | 8 | -1 | / | 4 | -1 | -7 |
| COc1cc(NC(=O)c2cc(OC)c(OC)c(OC)c2)ccc1NC(=O)c1cccs1 | -17 | i | 12 | -2 | 1 | 16 | -1 | 6 |
| CCOCCCNC(=O)C(NC(=O)Cc1cccs1)c1ccccc1 (stereo unspecified) | / | i | 4 | -12 | -16 | 2 | 1 | -2 |
| COc1ccc(C)cc1N(C(=O)c1ccc(C#N)cc1)C1=NC(C)(C)CS1 | 19 | i | -9 | 0 | 9 | 3 | 4 | 8 |
| O=C(Nc1ccc(NC(=S)NC(=O)c2ccccc2F)cc1)c1cccs1 | / | i | 3 | -1 | -19 | -3 | -8 | -1 |
| COc1ccc(Nc2cc(Nc3cccc(OC)c3)ncn2)cc1 | -20 | i | -5 | 49 | 9 | -8 | -5 | 10 |
| CCCOC1CCCN(C(=O)c2ccc(OC3CCN(C(=O)COC)CC3)cc2)C1 (stereo unspecified) | -9 | i | 3 | 10 | / | 4 | 3 | 3 |
| Clc1ccc2nc(-c3ccco3)c(Cc3ccsc3)n2c1 | -8 | / | / | / | 11 | -4 | 0 | / |
| CC1CCN(c2nc(-c3ccccc3O)nc3ccccc23)CC1 | -23 | i | -5 | -11 | -3 | -4 | -4 | -4 |
| CC(=O)c1ccc(N2CCCC2)c(F)c1 | / | i | 1 | 1 | / | / | / | 1 |
| COc1cccc(/C=N/NC(=O)C(=O)NCc2cccnc2)c1O | -13 | i | 9 | -8 | -93 | 7 | 2 | 19 |
| Cc1ccc(C)c(OCC(O)CNC2CCCC2)c1 (stereo unspecified) | 1 | i | 4 | 4 | 6 | 1 | 3 | -12 |
| CCc1ccccc1NC(=O)C(C)n1nc([N+](=O)[O-])c(Br)c1C (stereo unspecified) | -6 | / | -4 | 1 | / | 8 | -1 | -13 |
| COc1ccc(OC)c(-n2c(=S)[nH]c3cc(C(=O)N4CCC(C(N)=O)CC4)ccc3c2=O)c1 | -7 | i | 0 | / | 38 | 2 | 5 | 1 |
| C/C(NCc1cccnc1)=C(\C#N)C(=O)NCc1ccccc1 | -3 | i | 8 | -2 | / | 9 | 8 | -5 |
| Cc1cccc(C(=O)NC(=S)Nc2ccccc2C(F)(F)F)c1 | / | i | -13 | 16 | -30 | 1 | 2 | -11 |
| COc1ccc(N(CC(=O)N/N=C(\C)c2ccc(C)cc2)S(=O)(=O)c2ccccc2)cc1 | -7 | i | -2 | -2 | 7 | 2 | 4 | -15 |
| O=C1NCCCc2c1no[n+]2[O-] | -9 | i | 2 | -7 | / | 0 | 0 | -3 |
| CC(C)(C)NC(=O)c1ccccc1-c1nc2ccccc2s1 | / | i | 2 | 23 | 8 | -1 | 0 | 0 |
| Cc1nnc(NC(=O)c2cccc(S(=O)(=O)N3CC(c4ccccc4)CC3=O)c2)s1 (stereo unspecified) | -11 | i | 4 | -7 | 5 | -13 | 0 | 5 |
| CCCC(=O)Nc1ccc(S(=O)(=O)Nc2cc(OC)ncn2)cc1 | 5 | i | 5 | / | -17 | -5 | 2 | -14 |
| C=CCNC(=O)c1cc(-c2cccnc2)nc2ccccc12 | -9 | i | 9 | 1 | -5 | -6 | 2 | 4 |
| C=CCC1(CC=C)CCCN1C(=O)c1cc(COc2cccc(OC)c2)on1 | -3 | i | 3 | 12 | 9 | 3 | -4 | -2 |
| Cn1c(N)c(C(=O)COC(=O)Cc2ccc(F)cc2)c(=O)n(C)c1=O | -1 | / | / | / | -38 | -2 | 2 | / |
| CC(Sc1nncn1C)C(=O)NCc1ccc2c(c1)OCO2 (stereo unspecified) | / | i | 2 | -7 | -2 | 1 | 4 | -3 |
| O=[N+]([O-])c1ccc(/C=N/Nc2nc(N3CCOCC3)nc(N3CCOCC3)n2)cc1 | / | i | -7 | -7 | / | 2 | 2 | -1 |
| O=C(NCc1ccc(F)cc1)c1ccc(Cl)c(NC2=NC3CS(=O)(=O)CC3S2)c1 (stereo unspecified) | -14 | i | 12 | / | -35 | 3 | 7 | -3 |
| O=C(CC1OC(=O)c2ccccc21)NNC(=O)c1ccc(F)cc1 (stereo unspecified) | -8 | / | / | / | 5 | -2 | 2 | / |

UUG fidelity: hit marks shown above
molecule,UUG fidelity,Rce1 inh,Env fusion inh,MT1-MMP act inh,MT1-MMP act inh RFP
COc1cc(C(=O)OCC(=O)c2cc(C)n(CC3CCCO3)c2C)cc(OC)c1C (stereo unspecified),107*,/,3,-2,-5

Screening results deposited in PubChem by several laboratories.
